Screening results as filed in PubChem.
PABP FP inh: PABP poly(A) RNA binding inhibitors, primary screen, biochemical, fluorescence polarization, uHTS. inhibition, % at 35 µM. 290,000 compounds, 1% hits;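 active means 50% or more with normal probe brightness, or confirmed in later tests; about a fifth of its hits are not listed in these tables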;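 further: calls also rest on retests at 20 µM and on dose response follow-up; controls were probe without protein and protein plus probe with vehicle; some compounds called inactive have numbers as strong as hits; many hits fall short of the cut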
Target sequence (P11940 whole entry, looked up): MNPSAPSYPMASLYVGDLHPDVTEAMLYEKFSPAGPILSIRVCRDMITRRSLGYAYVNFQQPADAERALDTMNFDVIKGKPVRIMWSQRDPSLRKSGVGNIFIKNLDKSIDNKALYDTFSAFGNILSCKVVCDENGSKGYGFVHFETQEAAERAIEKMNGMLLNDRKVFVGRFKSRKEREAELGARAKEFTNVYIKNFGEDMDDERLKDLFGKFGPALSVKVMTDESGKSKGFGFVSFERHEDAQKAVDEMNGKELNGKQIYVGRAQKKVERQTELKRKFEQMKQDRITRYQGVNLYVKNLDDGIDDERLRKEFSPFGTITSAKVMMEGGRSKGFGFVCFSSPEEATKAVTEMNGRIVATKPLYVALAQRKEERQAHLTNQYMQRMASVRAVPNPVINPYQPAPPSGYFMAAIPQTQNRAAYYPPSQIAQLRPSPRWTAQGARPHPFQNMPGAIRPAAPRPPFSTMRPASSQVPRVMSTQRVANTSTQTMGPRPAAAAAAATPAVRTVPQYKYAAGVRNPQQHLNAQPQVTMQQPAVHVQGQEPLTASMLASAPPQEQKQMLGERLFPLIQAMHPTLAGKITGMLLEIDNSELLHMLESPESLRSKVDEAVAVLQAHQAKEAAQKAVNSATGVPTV
UUG fidelity: modulators of yeast start codon fidelity, primary screen, whole organism, S. cerevisiae, single point, plate reader; AID 602363, 2012; 350,000 compounds, 0.13% hits; activity score, % at 18.7 µM; S. cerevisiae UUG-firefly luciferase reporter, luminescence/redox ratio;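 active means replicate mean at a twofold rise or more, about +100% in these data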;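 further: firefly luciferase made from a UUG start codon reports start codon fidelity; reporter light over untreated wells divided by growth signal over untreated wells; some hits fall short of that in this replicate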
Env fusion inh: inhibitors of HIV-1 Env-driven cell-cell fusion, primary screen, HeLa-JRFL effector, CEM21 target cells, luciferase | inhibition, % at 12.3 µM | 360,000 compounds, 1.1% hits | AID 651610, 2012;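 active means mean replicate inhibition score of at least 50 and every replicate individually at or above 50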;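 further: 0% = plate neutral controls and 100% = maraviroc near 300 nM; one replicate is shown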
CSC inhib: cancer stem cell viability inhibitors, primary screen, luminescence | 300,000 compounds, 1.1% hits | inhibition, % at 7.5 µM | cancer stem cell-like cells viability | AID 2717, 2010;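 active means mean at 75% or more and at least half the replicates too; tested in HMLE shEcad cells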;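 further: 0% = median of negative and 100% = median of positive control wells; the first replicate is given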
Rce1 inh: yeast Rce1p protease inhibitors, primary screen, biochemical, fluorescence, cell-free homogeneous; yeast membranes, quenched prenylated peptide cleavage fluorescence; AID 2563, 2010; 290,000 compounds, 0.27% hits; calls only; CAAX prenyl protease 2 (Saccharomyces cerevisiae (strain ATCC 204508 / S288c)), Q03530;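 active means fall in fluorescence gain of 50% or more versus controls, with final raw signal at or below 3038400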;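 further: plate controls were neutral control wells for no effect and wells lacking membranes for full effect; tested at 10 µM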
eIF4H FP inh: human eIF4H binding inhibitors, primary screen, translation initiation inhibitor project, biochemical, uHTS, fluorescence polarization; Eukaryotic translation initiation factor 4H (Homo sapiens), Q15056; eIF4H fluorescence polarization binding assay; inhibition, % at 35 µM; 290,000 compounds, 0.94% hits;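 active means 50% or more with normal probe brightness, or confirmed in later tests; about a fifth of its hits are not listed in these tables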;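 further: calls also rest on retests at 20 µM and on dose response follow-up; 0% = protein and probe with vehicle and 100% = probe without protein; strong numbers were not always called active; many hits fall short of the cut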
MT1-MMP act inh: blockers of MT1-MMP proenzyme processing, primary screen, HT1080 RFP-PRO-GFP cells, GFP/RFP fluorescence | Matrix metalloproteinase-14 (Homo sapiens), P50281 | GFP/RFP ratio fluorescence, overnight; percent of plate control window, DMSO zero | GFP/RFP ratio change, % at 20 µM | 360,000 compounds, 0.061% hits | AID 651647, 2012;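 active means GFP/RFP ratio change of at least 30% with cell ATP level not reduced by more than half and red fluorescence within 50% of control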; further: strong numbers were not always called active
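system = RFP-PRO-GFP reporter HT1080 cells | dosing = 20 µM single dose, 1% DMSO | timing = overnight cell settling, then overnight compound exposure, 37 °C, 5% CO2 | read-out basis = GFP/RFP fluorescence ratio | controls = DMSO and RFP-L50D-GFP cell wells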
eIF4H FP inh retest: also measured in eIF4H FP inh; calls as there; inhibition, %; compound at 20 µM; confirmation average;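 mean of two retest wells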
PABP FP inh retest: also measured in PABP FP inh; calls as there; inhibition, %; compound at 20 µM; confirmation repeats;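 mean of two retest wells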
MT1-MMP act inh RFP: further read-out of MT1-MMP act inh, marked with its call; RFP signal change, %; measured here: RFP expression control read;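 0 = vehicle wells; hits needed this value within 50% of zero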
The depositor's hits bear a star; i = inactive; x = not tested or not shown; & = joins results of further samples; [ ] = dose if it differs, or a comment.

SMILES	PABP FP inh	UUG fidelity	Env fusion inh	CSC inhib	Rce1 inh	eIF4H FP inh	MT1-MMP act inh	MT1-MMP act inh RFP	others
Cc1ccc(S(=O)(=O)NCc2ccccc2)cc1C(=O)N1CCCCCCC1	x	-4	66*	0	i	x	0	-5
CC1(C)CC(=O)C(N=Nc2cccc(S(=O)(=O)N3CCOCC3)c2)=C(O)C1	2	x	-10	-17	i	-1	-2	2
c1ccc(CCCCc2ccccn2)cc1	x	-4	-46	x	x	x	1	1
Cc1nn(-c2ccccc2)c(Cl)c1/C=C1\C(=O)N(C)C(=S)N1C	10	x	-3	-3	i	-2	2	-4
Cc1c(CN(C)C(=O)C2CCC(=O)N(Cc3ccccc3F)C2)[nH]c2ccccc12 (configuration not stated)	x	-7	31	x	x	x	1	-2
O=C(CN(CC1CCCO1)C(=O)CNS(=O)(=O)c1ccccc1)NCc1ccc(F)cc1 (configuration not stated)	-2	-3	11	4	i	-5	0	1
COCCNC(=O)NC(=O)COC(=O)c1cc([N+](=O)[O-])ccc1Sc1nc(C)cs1	0	x	x	-14	i	-4	4	4
CCOc1cc(Br)cc(/C=C2\SC(=Nc3ccccc3)NC2=O)c1O	6	-11	4	-9	i	4	-18	43
CCN1C(=O)[C@@H]2[C@@H]3CN(S(=O)(=O)c4ccc(C)cc4)[C@@H](c4cccc5ccccc45)[C@@H]3C(=O)C[C@@H]2C1=O	x	-8	-27	x	x	x	5	3
O=C(Cn1c(=O)sc2ccccc21)Nc1ccc(S(=O)(=O)N2CCCCC2)cc1	-2	x	-20	-22	i	-17	11	-2
O=C(c1ccc(C(F)(F)F)cc1)C1CCCN(C(=O)CCc2cnccn2)C1 (configuration not stated)	-1	x	-3	0	i	-7	0	2
CCCn1c(N)c(N(CCOC)C(=O)c2cccc(S(=O)(=O)N3CCCc4ccccc43)c2)c(=O)[nH]c1=O	x	-6	40	-2	i	x	0	7
C[C@H](CO)N1C[C@H](C)[C@@H](CN(C)S(C)(=O)=O)Oc2c(NC(=O)Nc3ccc4c(c3)OCO4)cccc2C1=O	x	-9&-13	5[16.7 µM]	-13	x	x	2	7
COCCCNc1nc(N)c([N+](=O)[O-])c(Nc2ccccc2OC)n1	8	-1	-51	10	i	6	-7	-5
Cn1cc(C(=O)Nc2ccc(C#N)cc2)c2ccccc2c1=O	5	-15	9	2	i	6	1	3
CC1(C)CN(c2ccc(CC#N)cc2)C1=O	3	x	-12	x	i	13	3	2
Cc1ccc(CN(CC2CCCO2)C(=O)CN2C(=O)C(C(C)C)Oc3ccccc32)o1 (configuration not stated)	0	-5	9	1	i	-4	-1	-6
COC(=O)c1c(NC(=O)c2ccco2)sc2c1C(C(=O)OC)CC2 (configuration not stated)	-1	-18	x	-8	i	0	5	2
NC(=S)N/N=C/c1c[nH]c2ccccc12	9	-6	14	19	i	-10	2	3
COc1ccc2oc(=O)c(C(=O)N3CCCC3)cc2c1	4	-10	-14	-12	i	-8	-2	0

Some of these compounds in order of SMILES length, lowest first.
SMILES	PABP FP inh	UUG fidelity	Env fusion inh	CSC inhib	Rce1 inh	eIF4H FP inh	MT1-MMP act inh	MT1-MMP act inh RFP	others
c1ccc(CCCCc2ccccn2)cc1	x	-4	-46	x	x	x	1	1
COc1ccc2oc(=O)c(C(=O)N3CCCC3)cc2c1	4	-10	-14	-12	i	-8	-2	0
Cc1ccc(S(=O)(=O)NCc2ccccc2)cc1C(=O)N1CCCCCCC1	x	-4	66*	0	i	x	0	-5
O=C(Cn1c(=O)sc2ccccc21)Nc1ccc(S(=O)(=O)N2CCCCC2)cc1	-2	x	-20	-22	i	-17	11	-2
CC1(C)CC(=O)C(N=Nc2cccc(S(=O)(=O)N3CCOCC3)c2)=C(O)C1	2	x	-10	-17	i	-1	-2	2
CCN1C(=O)[C@@H]2[C@@H]3CN(S(=O)(=O)c4ccc(C)cc4)[C@@H](c4cccc5ccccc45)[C@@H]3C(=O)C[C@@H]2C1=O	x	-8	-27	x	x	x	5	3

Going on with the list.
SMILES	PABP FP inh	UUG fidelity	Env fusion inh	CSC inhib	Rce1 inh	eIF4H FP inh	MT1-MMP act inh	MT1-MMP act inh RFP	others
CCc1nc2c(OCc3ccc(Cl)cc3)cccn2c1N(C)C(=O)C1CC1	x	-42	21	x	x	x	-6	-9
COC(=O)c1cc(C)nc2c1C(=O)C(=O)C=C2N1CCOCC1	3	-47	-1	51	i	88	-14	-30	eIF4H FP inh retest=44;PABP FP inh retest=42
CCNC(=O)COC(=O)C1CCC(=O)N(c2ccc(OC)cc2)C1c1ccc(OC)cc1 (configuration not stated)	-6	-13	7	4	i	-5	-4	3
COC(=O)c1ccc(Cl)c(NC(=O)NC23CC4CC(CC(C4)C2)C3)c1	0	-3	-134	4	i	3	-5	-8
CC(=O)Nc1ccc(NC(=O)C(C)OC(=O)c2cccc(S(=O)(=O)N3CCCC3)c2)cc1 (configuration not stated)	x	-7	-12	0	i	x	1	1
CNC(=O)c1nn(C)c(=O)[nH]c1=O	x	-24	10	x	x	x	-4	1
O=C(/C=C/c1ccc([N+](=O)[O-])cc1)Nc1cccc(S(=O)(=O)NC2=NCCCCC2)c1	x	x	-15	19	x	x	0	-16
COC(=O)c1cc2occc2n1Cc1nc(-c2cccc(Cl)c2)oc1C	2	4	10	-11	i	0	-2	0
Nc1nc(NCc2ccccc2)n(-c2ccccc2)n1	4	-21	-21	-4	i	4	-1	0
O=C(COC(=O)c1ccc2c(c1)OCCO2)NC1CCCCC1	x	-19	x	7	x	x	-1	1
Cn1c(=O)oc2cc(S(=O)(=O)NCCN3CCCCCC3)ccc21	-2	-13	-47	-9	i	10	-1	7
O=C1COc2ccc(S(=O)(=O)N3CCCC3)cc2N1	9	-6	-6	-5	i	-2	-1	3
COc1ccc(OCC(=O)O/N=C(\N)Cc2ccc(Cl)cc2)cc1	-4	-10	-29	31	i	2	4	-6
O=S(=O)(c1ccc(Cl)s1)N1CCCc2cccc(O)c21	-3	-22	-157	x	i	2	-2	-2
Cc1nc2ccccc2nc1OCC(=O)Nc1cc(C(F)(F)F)ccc1N1CCOCC1	2	2	x	-3	i	-15	1	0
C[C@H](NC(=O)c1nc[nH]c1C(=O)NCC(=O)OCc1ccccc1)C(=O)OC(C)(C)C	4	-15	-12	6	i	-6	3	-3
CC(=O)Nc1ccc(-c2csc(NC(=O)c3ccc(C)o3)n2)cc1	3	-2	x	-4	i	2	-1	3
Cc1[nH]c2ccccc2c1C(=O)C(=O)NC1CC(=O)N(c2ccc(F)cc2)C1 (configuration not stated)	x	10	-45	8	i	x	6	1
COc1cccc(C(O)c2nc(-c3ccc(C)c(C)c3)cs2)c1 (configuration not stated)	x	-10	-4	x	x	x	7	-6
O=C(c1cc(C(=O)NCCc2ccccc2)c(=O)n(CCc2ccccc2)c1)c1cc(Cl)ccc1O	-10	x	22	3	i	2	-18	-30
Cc1cc(C)c(C(=O)C(C)OC(=O)c2ccc(Cl)nc2)cc1C (configuration not stated)	16	-19	32	x	i	2	0	-2
Cc1c(Br)c(C(=O)N2CCc3ccccc32)nn1C	-16	x	-29	-5	i	12	4	-2
O=C(Nc1ccccc1C(=O)N/N=C/c1ccc(O)cc1)c1ccccc1	0	x	-21	-8	i	-2	3	3
Cc1ccc(-c2nnn(CCC(=O)NC3CCCC3)n2)cc1	-4	x	x	-11	i	-6	3	-1
C[C@H]1CN([C@@H](C)CO)C(=O)CCCn2cc(nn2)CO[C@@H]1CN(C)C(=O)Nc1ccc(F)cc1	x	-8	14	x	x	x	2	2
COc1ccc(C(=O)Oc2ccc(F)cc2C(=O)/C=C/c2ccc(OC)c(OC)c2)cc1	-3	x	-38	4	i	-13	-1	1
O=C(c1ccc2c3c(cccc13)CC2)C1CCCN(C(=O)c2cc[n+]([O-])cc2)C1 (configuration not stated)	-2	x	9	11	i	-5	-3	1
CC(C)(O)C#Cc1ccc(CN2CCN(Cc3ccsc3)C(CCO)C2)cc1 (configuration not stated)	6	x	-6	10	i	-1	-3	0
Cc1ccc(NC(=O)COc2ccc3c(c2)OCO3)c(Cl)c1	x	-9	-87	x	x	x	3	2
CC(C)(CNC(=O)c1ccc(-c2ccccc2Cl)o1)N1CCOCC1	x	-15	-72	16	i	x	8	0
Cc1oc(-c2ccccc2F)nc1CS(=O)CC(=O)NC1CC1 (configuration not stated)	-10	x	7	-10	i	-23	2	1
COc1ccc(Br)cc1C(=O)CCC(=O)OCC(=O)Nc1cc(C(N)=O)cc(C(N)=O)c1	x	-3	-7	x	x	x	-1	3
CN1C(=O)[C@H]2[C@@H](C3CC3)N3C(=O)CN(CCO)C(=O)[C@@]3(Cc3ccccc3)[C@H]2C1=O	-5	-39	10	-20	i	-17	-5	2
O=C(CC1(C(=O)O)CCCC1)N1CCOCC1	-4	-24	-80	-5	i	-10	2	3
CS(=O)(=O)c1ccc(N2CCOCC2)c(S(C)(=O)=O)c1	14	x	x	-4	i	-3	3	4
Cc1nn(-c2ccccc2)c2nc(C(F)(F)F)[nH]c(=O)c12	6	x	8	-3	i	-4	2	1
O=C(NC1CCC(O)CC1)c1ccc(Br)o1 (configuration not stated)	x	-25	22	-13	x	x	1	2
CC(C)OCC(O)CSc1ccccn1 (configuration not stated)	-15	-8	x	-11	i	-9	4	5
COc1ccc(Oc2ccc(S(=O)(=O)N3CCCCC3)cc2S(=O)(=O)N2CCCCC2)cc1	-2	-9	23	-7	i	8	-3	-8
COc1cccc(-n2nnnc2SCC(=O)N2CCCc3ccccc32)c1	-14	-9	x	-2	i	-4	5	-1
Cc1cc(C)cc(N2C(=O)CC(N(C(=O)c3ccco3)c3cc(C)cc(C)c3)C2=O)c1 (configuration not stated)	-15	6	-28	-4	i	-5	1	6
CCCCn1cnc2c(SCc3ccccc3Cl)nc(N)nc21	x	-17	-2	x	x	x	3	-8
COc1ccc(N2CCN(C(=O)CCc3nnc4ccc(N5CCCC5)nn34)CC2)cc1	-6	-14	6	8	i	1	-3	0

Entries shown so far that contain two or more sulfur atoms:
SMILES	PABP FP inh	UUG fidelity	Env fusion inh	CSC inhib	Rce1 inh	eIF4H FP inh	MT1-MMP act inh	MT1-MMP act inh RFP	others
COCCNC(=O)NC(=O)COC(=O)c1cc([N+](=O)[O-])ccc1Sc1nc(C)cs1	0	x	x	-14	i	-4	4	4
O=C(Cn1c(=O)sc2ccccc21)Nc1ccc(S(=O)(=O)N2CCCCC2)cc1	-2	x	-20	-22	i	-17	11	-2
O=S(=O)(c1ccc(Cl)s1)N1CCCc2cccc(O)c21	-3	-22	-157	x	i	2	-2	-2
CS(=O)(=O)c1ccc(N2CCOCC2)c(S(C)(=O)=O)c1	14	x	x	-4	i	-3	3	4
COc1ccc(Oc2ccc(S(=O)(=O)N3CCCCC3)cc2S(=O)(=O)N2CCCCC2)cc1	-2	-9	23	-7	i	8	-3	-8

Reprinted from above, 2 compounds:
SMILES	PABP FP inh	UUG fidelity	Env fusion inh	CSC inhib	Rce1 inh	eIF4H FP inh	MT1-MMP act inh	MT1-MMP act inh RFP	others
Cc1cc(C)c(C(=O)C(C)OC(=O)c2ccc(Cl)nc2)cc1C (configuration not stated)	16	-19	32	x	i	2	0	-2
Cc1c(Br)c(C(=O)N2CCc3ccccc32)nn1C	-16	x	-29	-5	i	12	4	-2

This is a subset; rates above refer to the full screens.
